# Mtb bLac sens – beta-lactam sensitization of Mtb H37Rv; AID 434955; inhibition, % at 25 µM; M. tuberculosis H37Rv growth with meropenem, percent inhibition; hits of this screen are not shown here; 330,000 compounds, 0.27% hits;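 active = about 74% or more and at least 40 points above the plate without the antibiotic, then above 30% in a dose series; inconclusive = first-round hits that could not be retested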;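 note: growth measured after seven days incubation then overnight dye step; 0% = bacteria only wells and 100% = bacteria with antibiotic; twin plates without the antibiotic show which effects depend on it; some results filed as inactive read as strong as hits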
# Arbovirus inh – arbovirus infection inhibition; arbovirus infection cell-based antiviral screen; inhibition, % at 10 µM; 200,000 compounds, 0.37% hits; AID 1251;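 active = inhibition from about 30%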;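 note: bluetongue infection of BSR cells; cell survival read as ATP light after 72 h; 0% = infected wells without compound and 100% = uninfected wells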
# RecA intein inh – inhibitors of M. tuberculosis RecA intein splicing; P9WHJ3; cell-free RecA intein splicing, fluorescence; inhibition, %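 (about 9 µM by stock and volumes)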; 290,000 compounds, 0.75% hits; AID 2221; in the data active = inhibition above about 30%; inconclusive = no clear call, values can overlap the other calls;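 note: 0% = vehicle wells and 100% = reference inhibitor control wells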
# Target sequence (P9WHJ3 whole entry, looked up): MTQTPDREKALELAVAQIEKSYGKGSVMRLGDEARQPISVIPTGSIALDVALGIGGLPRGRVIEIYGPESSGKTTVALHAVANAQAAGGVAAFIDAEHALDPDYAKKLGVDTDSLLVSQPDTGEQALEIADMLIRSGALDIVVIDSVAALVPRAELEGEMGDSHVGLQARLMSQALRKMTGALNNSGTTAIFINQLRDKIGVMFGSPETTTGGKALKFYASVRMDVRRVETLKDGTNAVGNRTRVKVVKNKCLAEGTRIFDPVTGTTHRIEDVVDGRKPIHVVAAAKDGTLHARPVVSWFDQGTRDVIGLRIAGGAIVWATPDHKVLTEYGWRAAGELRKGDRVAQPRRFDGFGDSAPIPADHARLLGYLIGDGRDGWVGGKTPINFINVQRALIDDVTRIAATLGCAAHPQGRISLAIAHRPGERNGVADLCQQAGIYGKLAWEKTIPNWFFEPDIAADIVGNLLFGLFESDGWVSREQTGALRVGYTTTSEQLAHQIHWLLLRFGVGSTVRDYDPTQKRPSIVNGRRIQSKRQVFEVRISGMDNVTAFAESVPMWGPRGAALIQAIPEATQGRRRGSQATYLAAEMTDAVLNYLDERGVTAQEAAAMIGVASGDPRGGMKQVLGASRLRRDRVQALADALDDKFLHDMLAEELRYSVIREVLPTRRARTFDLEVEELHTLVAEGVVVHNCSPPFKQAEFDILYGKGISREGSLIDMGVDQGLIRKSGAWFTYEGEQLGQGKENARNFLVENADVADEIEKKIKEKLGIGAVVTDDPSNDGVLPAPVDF
# Mtb H37Rv – M. tuberculosis H37Rv growth inhibitors, H37Rv strain (AID 1626); inhibition, % at 10 µM, or IC50 in µM where a hit was titrated; M. tuberculosis H37Rv growth inhibition; higher % means a stronger effect; 220,000 compounds, 0.95% hits;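 active = confirmed in a dose series; inconclusive = inhibition above 80% but not taken into the dose series; inactive = below 80% or under 30% at every dose of the series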;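 note: bacteria incubated seven days before Alamar blue readout; 0% = bacteria only wells and 100% = bacteria with antibiotic wells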
# YopH PTP inh – YopH (Yersinia) phosphatase inhibition; 140,000 compounds, 0.16% hits; AID 898; fluorescence Ex485/Em525; inhibition, %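 (about 10 µM by stock and volumes)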;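 active = inhibition of 50% or more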;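 note: controls were vehicle for no effect and minimum signal wells for full effect; inactives centre near -20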
# Arbovirus inh repeat – second read-out of Arbovirus inh, no call of its own (marks repeat the call); inhibition, %; measured here: 10K subset replicate screen; many hits read low in the repeat;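 first of two repeat runs on a subset; 0% = infected and 100% = uninfected wells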
# An asterisk follows results filed as active; ? = inconclusive; · = not tested or not shown; & = joins results of further samples.
# Preview:
SMILES,Mtb bLac sens,Arbovirus inh,RecA intein inh,Mtb H37Rv,YopH PTP inh,others
O=C(O)c1ccc(COc2ccc(Cl)cc2)o1,-2,6,-0.6,-8%,-19,
Cc1ccc(NC(=O)C(=O)NCc2ccco2)c(C)c1,12,-2,11,-4%,·,
CCC12CN3CCN(CC(C3)C1O)C2 (stereo not drawn),-14,8,-12,-9%,10,
C=CCC(O)(CCN1CCCCC1)c1ccccc1 (stereo not drawn),-13,11,-2.2,8%,-17,
Cc1ccc(-c2nc(SCC(=O)Nc3cc(S(=O)(=O)N4CCCCC4)ccc3Cl)n[nH]2)cc1,-1,-1,3.9,4%,-28,
COC(=O)c1ccc(/C=N/NC(=O)CC(=O)NC2CCCCC2)cc1,0,5,-0.9,-3%,·,
O=C(N/N=C/c1ccc(Cl)c([N+](=O)[O-])c1)C1CC1,0,13,-1.8,10%,·,
COC(=O)C(c1ccccc1)N1CCCCCC1 (stereo not drawn),-9,0,1.9,-3%,-3,
Cc1cccc(C)c1NC(=O)C(NC=O)c1ccc(Cl)cc1 (stereo not drawn),-8,-2,1.1,0%,-32,
O=C(NNC(=O)c1n[nH]c(=O)c2ccccc12)c1ccc(Br)cc1,1,·,-0.8,-3%,·,
O=C1CCC(=O)N1OCCCOc1ccccc1,-19,5,-0.4,-6%,-3,
Cc1sc(NC(=O)CSc2nnc(N)s2)c(C#N)c1C,-2,·,-0.2,·,·,
N=c1ccn2c(n1)O[C@H]1[C@H](O)[C@@H](CO)O[C@H]12,-1,·,-2.0,·,·,
Cc1occc1C(=O)Nc1cc(C(F)(F)F)ccc1Cl,3,0,1.2,0%,-138,
COc1ccc(C(=O)NCC(O)COc2ccc(C(C)(C)C)cc2)cc1[N+](=O)[O-] (stereo not drawn),-2,-4,0.3,0%,-27,
CC(=O)Nc1ccc(NC(=O)C(C)OC(=O)C(C)SCC(=O)Nc2ccc(F)cc2)cc1 (stereo not drawn),-4,·,-0.7,·,·,
COc1ccc(NC(=O)C2CCCN(S(=O)(=O)c3ccccc3)C2)c(OC)c1 (stereo not drawn),0,·,17,·,·,
O=S(=O)(c1ccc(F)cc1)N1CCN(c2ccccc2)CC1,2,2,0.2,-1%,-28,
CC1CCC2C(=O)N(c3ccccc3OC(=O)c3ccccc3)C(=O)C2C1 (stereo not drawn),18,1,-0.2,·,-6,
O=C(COn1nnc2ccc(C(F)(F)F)cc21)Nc1nnc(-c2ccccc2)o1,6,-12,1.2,-8%,-17,
CCn1c(=O)c(C(=O)CN(C)Cc2cccc(OC)c2OC)c(N)n(Cc2ccccc2)c1=O,-4,-2,0.6,-1%,-15,
Cc1ccccc1-n1ccnc1SCC(=O)O,-12,-1,-4.0,-1%,-33,
N#C/C(=N\O)c1nc(-c2ccccc2)cs1,3&-21,7&7,4.4,2%&-5%,-11&6,
O=C(NCc1ccccc1F)c1ccc(S(=O)(=O)Nc2cccc(C(F)(F)F)c2)cc1,4,-11,-3.9,1%,-25,

# Main list, repeating the preview:
SMILES,Mtb bLac sens,Arbovirus inh,RecA intein inh,Mtb H37Rv,YopH PTP inh,others
O=C(O)c1ccc(COc2ccc(Cl)cc2)o1,-2,6,-0.6,-8%,-19,
Cc1ccc(NC(=O)C(=O)NCc2ccco2)c(C)c1,12,-2,11,-4%,·,
CCC12CN3CCN(CC(C3)C1O)C2 (stereo not drawn),-14,8,-12,-9%,10,
C=CCC(O)(CCN1CCCCC1)c1ccccc1 (stereo not drawn),-13,11,-2.2,8%,-17,
Cc1ccc(-c2nc(SCC(=O)Nc3cc(S(=O)(=O)N4CCCCC4)ccc3Cl)n[nH]2)cc1,-1,-1,3.9,4%,-28,
COC(=O)c1ccc(/C=N/NC(=O)CC(=O)NC2CCCCC2)cc1,0,5,-0.9,-3%,·,
O=C(N/N=C/c1ccc(Cl)c([N+](=O)[O-])c1)C1CC1,0,13,-1.8,10%,·,
COC(=O)C(c1ccccc1)N1CCCCCC1 (stereo not drawn),-9,0,1.9,-3%,-3,
Cc1cccc(C)c1NC(=O)C(NC=O)c1ccc(Cl)cc1 (stereo not drawn),-8,-2,1.1,0%,-32,
O=C(NNC(=O)c1n[nH]c(=O)c2ccccc12)c1ccc(Br)cc1,1,·,-0.8,-3%,·,
O=C1CCC(=O)N1OCCCOc1ccccc1,-19,5,-0.4,-6%,-3,
Cc1sc(NC(=O)CSc2nnc(N)s2)c(C#N)c1C,-2,·,-0.2,·,·,
N=c1ccn2c(n1)O[C@H]1[C@H](O)[C@@H](CO)O[C@H]12,-1,·,-2.0,·,·,
Cc1occc1C(=O)Nc1cc(C(F)(F)F)ccc1Cl,3,0,1.2,0%,-138,
COc1ccc(C(=O)NCC(O)COc2ccc(C(C)(C)C)cc2)cc1[N+](=O)[O-] (stereo not drawn),-2,-4,0.3,0%,-27,
CC(=O)Nc1ccc(NC(=O)C(C)OC(=O)C(C)SCC(=O)Nc2ccc(F)cc2)cc1 (stereo not drawn),-4,·,-0.7,·,·,
COc1ccc(NC(=O)C2CCCN(S(=O)(=O)c3ccccc3)C2)c(OC)c1 (stereo not drawn),0,·,17,·,·,
O=S(=O)(c1ccc(F)cc1)N1CCN(c2ccccc2)CC1,2,2,0.2,-1%,-28,
CC1CCC2C(=O)N(c3ccccc3OC(=O)c3ccccc3)C(=O)C2C1 (stereo not drawn),18,1,-0.2,·,-6,
O=C(COn1nnc2ccc(C(F)(F)F)cc21)Nc1nnc(-c2ccccc2)o1,6,-12,1.2,-8%,-17,
CCn1c(=O)c(C(=O)CN(C)Cc2cccc(OC)c2OC)c(N)n(Cc2ccccc2)c1=O,-4,-2,0.6,-1%,-15,
Cc1ccccc1-n1ccnc1SCC(=O)O,-12,-1,-4.0,-1%,-33,
N#C/C(=N\O)c1nc(-c2ccccc2)cs1,3&-21,7&7,4.4,2%&-5%,-11&6,
O=C(NCc1ccccc1F)c1ccc(S(=O)(=O)Nc2cccc(C(F)(F)F)c2)cc1,4,-11,-3.9,1%,-25,
CC1CN(c2oc(-c3cccs3)nc2C#N)CC(C)O1 (stereo not drawn),2,12,0.4,5%,-48,
Cc1cnc(C(=O)Nc2nc(-c3ccccc3)cs2)cn1,92,-32,3.9,?,-13,
CCn1c2ccc(F)cc2c2nnc(SCCN3CCOCC3)nc21,0,·,-0.7,·,·,
CCCn1c(C)cc(/C=C(\C#N)C(=O)OCC(=O)Nc2cccc(OC)c2)c1C,-6,-3,-3.8,3%,-15,
COc1cccc(C2=NOC(C(=O)Nc3cccnc3)C2)c1 (stereo not drawn),-19,11,1.0,0%,-24,
CCSc1nnc2c3cc(CC)ccc3n(C)c2n1,0,·,-1.2,·,·,
CNC(=O)C(Sc1nc(C)nc2c1oc1ccccc12)C(C)=O (stereo not drawn),-2,-9,-0.8,4%,-4,
O=C1CN2NC(=S)N(c3ccccc3)C2=CN1c1ccc(Cl)cc1,-3,0,6.2,-8%,·,
CCOC(=O)C1CCN(/C=C2/C(=O)NC(=S)N(c3cccc(OC)c3)C2=O)CC1,-14,1,-1.0,-5%,·,
CCOC(=O)C1=C(c2ccccc2)Nc2ncnn2C1c1cc(OC)cc(OC)c1OC (stereo not drawn),-5,4,-5.2,-7%,-34,
CCN1CCCC1CNS(=O)(=O)c1cc(Br)cc2c1N(C(=O)C1CC1)CC2 (stereo not drawn),-7,-3,4.0,-12%,-31,
Cc1ccc(C(=O)Nc2cccc(C(=O)O)c2)cc1S(=O)(=O)N1CCCCC1,5,12,·,0%,-34,Arbovirus inh repeat=6
NC(=O)Nc1ccc(F)cc1,-9,5,-3.9,7%,-5,
CCN1CCCc2cc(CN(CCN3CCOCC3)C(=O)Nc3ccc(C)c(C)c3)ccc21,5,3,-2.3,-9%,-18,
CCCn1c(SCC(=O)Nc2cc(Cl)ccc2OC)n[nH]c1=O,6,11,-0.4,-22%,-20,
COc1ccc(NC(=O)CSc2ccccn2)c([N+](=O)[O-])c1,-2,·,-0.6,-6%,·,
COc1cc2c(cc1OC)C(c1cccc([N+](=O)[O-])c1)NC(=O)C2 (stereo not drawn),-2,-1,0.1,-3%,·,
CCN(CC)S(=O)(=O)c1ccc2c(c1)c(=O)c(C(=O)NCc1cccs1)cn2C,-4,-5,-0.4,-4%,-23,
COc1ccc(O)c(/C=N/NC(=O)c2ccc(N3CCCC3=O)cc2)c1,10,·,-2.8,·,·,
COc1ccccc1OCC(=O)Nc1cc(S(=O)(=O)N2CCCCC2)ccc1N1CCCCC1,2,5,12,11%,-20,
COC(=O)c1cc2ccsc2n1Cc1nc(-c2cccc(Cl)c2)oc1C,-3,5,0.6,2%,-49,
O=C(Cc1c(Cl)cccc1Cl)Nc1cccc(S(=O)(=O)N2CCOCC2)c1,-3,-3,-1.2,9%,·,
CCNc1nc2c(c(=O)[nH]c(=O)n2C)n1CCCc1ccccc1,-4,·,0.9,·,·,
CCOC(=O)C1(C)NC(c2cc(OC)c(OC)c(OC)c2)C2C(=O)N(CC)C(=O)C21 (stereo not drawn),-3,0,5.6,-2%,-12,
O=C(NCc1cccc2[nH]ccc12)C1CCC(=O)N(CCc2ccccc2)C1 (stereo not drawn),-2,·,1.9,·,·,
S=C(c1ccccc1)N1CCCc2ccccc21,4,1,17,7%,-17,

# Next compounds follow:
SMILES,Mtb bLac sens,Arbovirus inh,RecA intein inh,Mtb H37Rv,YopH PTP inh,others
COc1cccc(CNC(=O)CNC(=S)N(Cc2ccccc2)Cc2ccccc2F)c1,·,-29,6.2,6%,·,
COCCNCCCOc1ccc(Br)cc1Cl,7,-31,0.3,4%,-17,
S=C(c1ccc(OCc2ccccc2)cc1)N1CCCC1,-7,·,3.6,·,·,
C=CCc1ccc(OCCCOc2ccc(C)c(C)c2)c(OC)c1,-9,12,3.9,-5%,-13,
Cc1[nH]c2ccc(C(=O)OC(C)C(=O)NC3(C#N)CCCCC3)cc2c1C (stereo not drawn),9,·,0.1,·,·,
CCCCC(=O)Nc1cccc(NC(=O)c2ccc(Br)o2)c1,-8,-12,2.1,34%,19,
COc1cc(CC(=O)OCc2cccc([N+](=O)[O-])c2)cc(OC)c1OC,-1,·,3.5,·,·,
Cc1cc(C(=O)CCl)c(C)n1-c1ccon1,·,7,7.7,2%,·,
COC(=O)c1cn(-c2ccccc2)nc1-c1ccc(OC)cc1,16,-4,-2.7,8%,·,
Cc1[nH]c(C(=O)N/N=C/c2ccc(N(C)C)cc2)c(C)c1C(=O)N/N=C/c1ccc(N(C)C)cc1,8,-9,-4.5,-13%,·,
Cc1cccc(-n2c(C)cc(C=C3C(=O)c4ccccc4C3=O)c2C)c1,88,-3,2.4,·,-17,
CC1(c2ccccc2Cl)NC(=O)N(CC(=O)N2CCN(S(=O)(=O)c3ccccc3)CC2)C1=O (stereo not drawn),1,·,-1.5,·,·,
COc1ccc(-n2cnc3cc(C(=O)N4CCC5(CC4)OCCO5)ccc32)cc1,2,-11,-3.5,0%,·,
COc1cccc(C(=O)NNS(=O)(=O)c2ccc(C)cc2)c1,13,·,-1.5,·,·,
CCOC(=O)C1=NN(N=O)C2(CC(=O)N(c3cc(C)cc(C)c3)C2=O)C1 (stereo not drawn),3,2,-1.6,-5%,-17,
Cc1ccc(N(CC(=O)NC2CCCCC2)C(=O)CNC(=O)c2cccs2)cc1,3,·,-2.5,·,·,
O=C1NC(=O)N(c2ccccc2)C(=O)/C1=C/C=C/c1ccco1,-3,·,-2.8,-5%,·,
COc1ccc(CCNC2CCCCC2)cc1OC,0,0,-3.3,6%,·,
Cc1ccc(S(=O)(=O)N2CCN(CC(=O)NC(=O)NCc3ccco3)CC2)cc1C,-5,·,-4.0,-2%,·,
O=C(CSc1nnc(CNC(=O)c2ccco2)o1)Nc1ccccc1,4,13,2.5,-5%,·,
Cc1cc(C)c2sc(N(CCN(C)C)C(=O)CCS(=O)(=O)c3ccccc3)nc2c1,4,·,-0.6,·,·,
CC(=O)c1c(NCCc2ccccc2)nc(=S)n(-c2ccccc2)c1C,-6,7,2.9,2%,·,
Cc1oc2cc3oc(=O)c(CC(=O)N[C@@H](C)C(=O)NC(Cc4ccc(Cl)cc4)C(=O)O)c(C)c3cc2c1C (stereo partly drawn),3,·,-3.7,·,·,

# A run of entries from the list above, for reference:
SMILES,Mtb bLac sens,Arbovirus inh,RecA intein inh,Mtb H37Rv,YopH PTP inh,others
Cc1ccc(N(CC(=O)NC2CCCCC2)C(=O)CNC(=O)c2cccs2)cc1,3,·,-2.5,·,·,
O=C1NC(=O)N(c2ccccc2)C(=O)/C1=C/C=C/c1ccco1,-3,·,-2.8,-5%,·,
COc1ccc(CCNC2CCCCC2)cc1OC,0,0,-3.3,6%,·,

# This is a subset; the hit share may differ from the screen's.
